PNC assembly inh: blocks assembly of the perinucleolar compartment; PC3M PTB-GFP, PNC prevalence imaging, 16 h; active compounds read low; activity change (PNC), negative = inhibition, % at 10 µM; 3.1% of 140,000 active;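 active means readout at or below -70, meaning at least 70% loss of cells showing the perinucleolar compartment, a nuclear body marking cancer cells; inconclusive means readout between -30 and a set limit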;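 further: plate controls were DMSO wells for no effect and camptothecin positive control wells for full effect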
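PC3M cells stably expressing PTB-GFP, 750–1000 cells/well, treated 16 h at 37 °C with compound (23 nl of library stock), in duplicate. After paraformaldehyde fixation and Hoechst stain, imaged at 20x; PNC prevalence scored by image analysis.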
ALOX12 inhib: inhibitors of human 12-lipoxygenase (ALOX12); P18054; purified 12-hLO, xylenol orange hydroperoxide absorbance; Potency, µM (series often up to 57.1 µM), without a hit: at the top dose activity change, negative = inhibition, usual class: inhibitors; 0.12% of 150,000 active; AID 1452; active means well fitted inhibition curve with a large enough effect; inconclusive means small, poorly fitted or top-dose-only effect; further: potency means the concentration at half of the fitted maximal effect; nearly all actives have a fitted effect of over 55% in size; many of its hits are not listed in these tables
Target sequence (P18054 whole entry, looked up): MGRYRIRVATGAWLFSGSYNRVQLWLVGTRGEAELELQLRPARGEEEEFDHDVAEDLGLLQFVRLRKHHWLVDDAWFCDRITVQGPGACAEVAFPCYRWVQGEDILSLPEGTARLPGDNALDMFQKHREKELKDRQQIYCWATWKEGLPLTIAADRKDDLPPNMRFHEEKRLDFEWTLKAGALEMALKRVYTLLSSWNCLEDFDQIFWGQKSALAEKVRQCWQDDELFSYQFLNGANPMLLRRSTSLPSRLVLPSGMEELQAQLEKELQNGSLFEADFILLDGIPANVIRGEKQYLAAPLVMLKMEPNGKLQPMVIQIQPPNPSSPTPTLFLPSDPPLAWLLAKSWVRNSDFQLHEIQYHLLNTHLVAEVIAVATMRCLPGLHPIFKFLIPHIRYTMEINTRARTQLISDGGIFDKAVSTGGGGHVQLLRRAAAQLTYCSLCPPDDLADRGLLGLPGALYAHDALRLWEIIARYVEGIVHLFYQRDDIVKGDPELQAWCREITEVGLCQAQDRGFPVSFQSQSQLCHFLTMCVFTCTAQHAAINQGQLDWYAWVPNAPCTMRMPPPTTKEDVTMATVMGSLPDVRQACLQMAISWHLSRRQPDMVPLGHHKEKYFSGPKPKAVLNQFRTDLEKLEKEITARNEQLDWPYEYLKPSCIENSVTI
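Lipoxygenase turnover measured by absorbance at 573 and 405 nm after Fe-XO development. Human 12hLO 150 nM, arachidonate 40 uM, pH 7.0 Hepes buffer with detergent; 15 min compound preincubation, 30 min reaction.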
IMPase inh: IMPase inhibition in cells | P97697 | 120,000 tested, under 10 active | AID 901 | inhibition (IP1 accumulation), % at 46.1 µM | CHO-M1 cells, IP1 accumulation, HTRF TR-FRET ratio; active means well fitted curve in the direction sought with a large enough effect in the signal ratio, not every such curve was filed as active; inconclusive means small, poorly fitted or top-dose-only effect, or a change in a side signal; inactive means no such curve, though single readings can be large or run the other way; the % refers to the signal ratio;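 further: cells stimulated with carbachol in lithium chloride buffer; plate controls were DMSO basal wells for no effect and reference inhibitor wells for full effect; higher means more IMPase inhibition seen as more IP1 and lower FRET ratio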
Target sequence (P97697 whole entry, looked up): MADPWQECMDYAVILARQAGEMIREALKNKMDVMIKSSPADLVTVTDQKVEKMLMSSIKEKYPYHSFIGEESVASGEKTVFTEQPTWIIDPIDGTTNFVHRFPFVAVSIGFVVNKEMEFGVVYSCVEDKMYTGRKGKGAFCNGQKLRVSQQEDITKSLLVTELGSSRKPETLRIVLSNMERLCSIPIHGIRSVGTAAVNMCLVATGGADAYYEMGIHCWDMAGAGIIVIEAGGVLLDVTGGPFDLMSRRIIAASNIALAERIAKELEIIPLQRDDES
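The IP-One HTRF competitive assay in carbachol-stimulated CHO-M1 cells quantifies cellular IP1. Compounds spanned up to 46 uM final, and activity is expressed as AC50 from concentration-response fits of the ratio and donor data.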
* marks the source's active call; other numbers are inactive results; ? = inconclusive; nt = not tested or not shown; [ ] = dose if it differs, or a comment. Unless noted, on the % scale 0 is the no-effect control and ±100 the full control effect. The list is partial (hit frequency here may not be typical).

| PNC assembly inh | ALOX12 inhib | IMPase inh | compound |
| --- | --- | --- | --- |
| 16 | -3% | 1 | Clc1ccc(Cl)c(OCc2cc(-c3ccccc3Cl)on2)c1 |
| 3 | 1% | 0 | O=C(O)c1cc(O)ccc1-c1ccc(O)cc1 |
| 38 | -5% | 1 | O=C(NCc1ccc2c(c1)OCO2)c1cccc(N2CCCC2=O)c1 |
| 28 | 2% | -2 | CN(CCC(=O)Nc1ccc(Br)cc1)Cc1ccccc1 |
| -22 | -18% | 7 | CCOC(=O)N1CCC2(CC1)C(C#N)=C(N)Oc1c2c(C)nn1-c1cccc(Cl)c1 |
| 12 | 3% | 1 | O=C(Nc1nc(-c2ccccn2)cs1)c1ncc(Cl)c(Cl)c1Cl |
| -8 | -1% | -11 | Cc1ccc(-c2cnc(NC(=O)CCC(=O)N3CCCCC3)n2C)cc1 |
| -20 | -20% | -2 | Cc1ccccc1C(=O)NNC(=S)NC(=O)c1ccc(Cl)cc1Cl |
| -20 | -2% | -23 | O=C(NCCN1CCOCC1)c1cc2c(=O)n3ccccc3nc2n1Cc1ccccc1 |
| 23 | -9% | 8 | CC(=O)Cc1nsc(NC(=O)c2ccc(-c3ccccc3Cl)o2)n1 |
| -9 | 7% | ? | C=CCn1c(CCNC(=O)c2cccs2)nnc1SCC(=O)Nc1cccc(F)c1 |
| 14 | ? | -1 | CCCCn1c(NC(=O)c2ccccc2)c(C#N)c2nc3ccccc3nc21 |
| 20 | -4% | 0 | CCOC(=O)C1=C(C)Nc2nnnn2C1c1cccnc1 (stereo not drawn) |
| nt | -4% | -1 | CC(C)NC[C@H](O)COc1ccc(CC(N)=O)cc1 |
| 16 | 5% | 7 | Cc1[nH]c(=O)[nH]c(=O)c1S(=O)(=O)NCCOC12CC3CC(CC(C3)C1)C2 |
| -1 | -6% | -7 | N#Cc1c(N)n(CCc2ccc(F)cc2)c2nc3ccccc3nc12 |
| -8 | -5% | -15 | O=C1OC(Nc2ccc3ncccc3c2)c2ccccc21 (stereo not drawn) |
| -4 | ? | 3 | Cc1cccc(NC(=S)NC(=O)c2cc(-c3ccccc3)nc3ccccc23)c1 |
| ? | -2% | 5 | CC(=O)/C(C(=N)N1CCN(c2cccc(Cl)c2)CC1)=C(\C)O |
| 16 | -6% | -2 | COc1nc(NC(C)=O)nc(C)c1Br |
| -26 | -3% | -1 | COc1cc(C(=O)Nc2ccc(O)cc2)ccc1OC(C)=O |
| 3 | 3% | -4 | CC(C)CCNC(=O)NC(=O)COc1c(F)c(F)cc(F)c1F |
| ? | -11% | 4 | CC(Oc1ccc(F)cc1)C(=O)Nc1sc2c(c1C(=O)NCc1cccnc1)CCCC2 (stereo not drawn) |
| -7 | -3% | ? | O=C(COc1ccccc1)NC(=S)Nc1ccc2c3c(cccc13)CC2 |
| 16 | -6% | -1 | O=C(CSCSCC(=O)Nc1ccc2c(c1)OCO2)Nc1ccc2c(c1)OCO2 |
| -12 | -20% | ? | COCCCn1c(=N)c(C(=O)NCC2CCCO2)cc2c(=O)n3ccccc3nc21 (stereo not drawn) |
| 53 | -1% | 1 | CC(NC(=O)Cc1ccc(F)cc1)c1ccccc1 (stereo not drawn) |
| 19 | 4% | -4 | CCOc1ccc(N(CC)C(=O)COc2cc(=O)n(C)c3ccccc23)cc1 |
| 5 | -2% | 1 | C/C(CCC12CC3CC(CC(C3)C1)C2)=N\NC(N)=S |
| ? | -13% | -4 | O=C(CNc1ccc(C(F)(F)F)cc1[N+](=O)[O-])OCC(=O)c1ccccc1 |
| 32 | -1% | -18 | CC1=C(C(=O)Nc2ccccc2)C(c2cccnc2)n2nc(-c3cccnc3)nc2N1 (stereo not drawn) |
| 2 | -5% | 6 | O=C(CN(Cc1ccccc1)C(=O)c1ccco1)NCc1ccc(F)cc1 |
| -1 | -16% | 10 | C=CCN(CC=C)S(=O)(=O)c1ccc(NC(=S)NC(=O)/C=C/c2cccc3ccccc23)cc1 |
| ? | -8% | 4 | C=CCN(C(=O)Nc1ccc2oc(C)nc2c1)c1ccccc1 |
| ? | -2% | -1 | O=C(Cn1c(=O)n(CC2CCCO2)c(=O)c2ccccc21)c1ccccc1 (stereo not drawn) |
| 19 | -15% | 2 | CCc1ccc2[nH]cc(C(=O)OCCOC)c(=O)c2c1 |
| 15 | 0% | 5 | N#Cc1ccc(-c2ccc(F)cc2)nc1Oc1ccc(Cl)c(Cl)c1 |
| 40 | 1% | 5 | CC1CCCCC1NC(=O)Cn1[nH]c(=O)c2ccccc2c1=O (stereo not drawn) |
| 32 | 3% | 0 | COc1ccc(C(C#N)Nc2ccccc2OC)cc1 (stereo not drawn) |
| 16 | 0% | 5 | COc1cccc(OC)c1C(=O)Nc1c(C)n(C)n(-c2ccccc2)c1=O |
| 38 | -7% | 6 | O=C(CCc1ccc(S(=O)(=O)NC2CCCCC2)cc1)N(Cc1ccccc1)Cc1ccccc1 |
| 42 | -1% | 4 | CC(C(=O)NCC1(c2ccccc2)CCCC1)N1CCOCC1 (stereo not drawn) |
| 57 | -2% | 1 | CCOC(=O)c1c(CSC(=N)N)n(-c2ccc(C)cc2)c2cc(Br)c(OC(C)=O)cc12 |
| ? | -10% | 5 | CCOC(=O)c1cc2nc(Nc3ccc(OC)cc3)sc2s1 |
| 43 | -4% | -4 | O=C(c1cc(-c2cccs2)nc2ccccc12)N1CCN(S(=O)(=O)c2cccc(F)c2)CC1 |
| ? | ? | 8 | CC1(C)c2ssc(=S)c2-c2ccccc2N1C(=O)CSC1=NCCS1 |
| -13 | -5% | ? | COCCn1nnnc1CN1CCN(c2cccc(C(F)(F)F)c2)CC1 |
| 28 | -3% | 2 | CCCN1CCN(C(=O)CCCNC(=O)Cn2cnc3sc(C)c(C)c3c2=O)CC1 |
| -11 | -9% | -2 | CCCNC(=O)CCC(=O)Nc1ncc(-c2ccc(C)cc2)n1C |
| 1 | -12% | 1 | CN1C(=O)CS(=O)c2ccc(C(=O)NC3CC3)cc21 (stereo not drawn) |
| ? | -5% | ? | COC(=O)c1ccccc1NC(=O)COc1ccc(S(=O)(=O)N2CCCC2)cc1C |
| 27 | 1% | 5 | Cc1cc(C)n2c(SCC(=O)Nc3ccc(Cl)cn3)nnc2n1 |
| 42 | ? | -11 | CCOC(=O)COc1cc(Br)c(/C=N/Nc2ccccc2)cc1OC |
| 21 | 0% | 5 | COc1cccc(C(=O)Nc2nc3c(c(=O)[nH]2)CCCC3)c1 |
| ? | -5% | 4 | CCC(=O)Nc1nc2ccccc2n1CCN(C)C |
| -28 | -8% | 11 | Cc1nc2ccccc2c2oc(C(=O)Nc3ccc4c(c3)OCCO4)cc12 |
| -14 | 3% | 3 | CCCOc1ncnc2c1[nH]c1ccccc12 |
| 46 | 6% | 0 | COc1ccc(C(=O)Nc2cccnc2)cc1 |
| 1 | 3% | 4 | Cn1nnc2cc(C(=O)NC3CCCCC3)ccc21 |
| ? | -5% | ? | Fc1ccc(NC(=S)NN=C2CCCCCC2)cc1 |

Shown with values under each structure: part of the list above.
Values in the order – PNC assembly inh	ALOX12 inhib	IMPase inh
- CC1CCCCC1NC(=O)Cn1[nH]c(=O)c2ccccc2c1=O (stereo not drawn)
  40	1%	5
- O=C(c1cc(-c2cccs2)nc2ccccc12)N1CCN(S(=O)(=O)c2cccc(F)c2)CC1
  43	-4%	-4
- CCc1ccc2[nH]cc(C(=O)OCCOC)c(=O)c2c1
  19	-15%	2
- Cn1nnc2cc(C(=O)NC3CCCCC3)ccc21
  1	3%	4

Three compounds from above, sorted by the value under IMPase inh, falling:
| PNC assembly inh | ALOX12 inhib | IMPase inh | compound |
| --- | --- | --- | --- |
| 27 | 1% | 5 | Cc1cc(C)n2c(SCC(=O)Nc3ccc(Cl)cn3)nnc2n1 |
| ? | -5% | 4 | CCC(=O)Nc1nc2ccccc2n1CCN(C)C |
| 42 | ? | -11 | CCOC(=O)COc1cc(Br)c(/C=N/Nc2ccccc2)cc1OC |

Later entries.
| PNC assembly inh | ALOX12 inhib | IMPase inh | compound |
| --- | --- | --- | --- |
| -10 | -1% | -4 | CN(c1ccccc1)c1nc(-n2ccnc2)nc(-n2ccnc2)n1 |
| 82 | 0% | 7 | Cc1cc(C(=O)CN2C(=O)c3ccccc3C2=O)c(C)n1C1CC1 |
| 17 | 0% | 6 | CCOC(=O)c1nnn(-c2nc(OC)nc(N3CCCCC3)n2)c1-c1ccccc1 |
| 21 | -3% | 7 | COC(=O)c1ccc(C2CC(=O)NC3=C2C(=O)CCC3)cc1 (stereo not drawn) |
| -6 | -8% | 2 | COc1cc2c(cc1NC(=O)c1cncc(Br)c1)oc1ccccc12 |
| -16 | -2% | 12 | O=S(=O)(Nc1cccnc1)c1ccc2c(c1)OCCO2 |
| -6 | -4% | 9 | COc1ccc(NC(=O)CCN2CCN(S(=O)(=O)c3ccc(C(C)C)cc3)CC2)cc1 |
| ? | -14% | 5 | CCCCN1C(=O)Cc2c1nc(N)c1c(N)nc(N(CCC)CCC)c(C#N)c21 |
| 32 | -9% | 1 | C/C(=C\C(=O)c1ccc(Br)cc1)NCc1ccccc1 |
| 26 | -1% | 1 | Cc1cc2oc(=O)c3c(c2cc1OC(=O)c1ccco1)CCCC3 |
| 45 | ? | 5 | Cc1ccc(NC(=S)N2CCC(c3nc4ccccc4s3)CC2)cc1 |
| -9 | -2% | 0 | N#Cc1ccc(C2=NC(C(F)(F)F)(C(F)(F)F)c3c(n(Cc4ccco4)c(=O)[nH]c3=O)N2)cc1 |
| nt | -10% | nt | COc1ccc(-c2cc(=O)c3c(OC(C)=O)cc(OC(C)=O)cc3o2)cc1 |
| -26 | -1% | -9 | CCCCn1nnnc1NCc1cccs1 |
| -2 | 1% | 8 | CC12CN(C(=O)c3ccc(Cl)cc3)C3(C#N)CC1CCC23C (stereo not drawn) |
| ? | 3% | -2 | CCOC(=O)N1CCN(C(=O)CN(C2CCCCC2)S(C)(=O)=O)CC1 |
| 35 | -20% | 0 | Cc1cccc(C)c1N1C(=O)CC(N(O)c2ccccc2)C1=O (stereo not drawn) |
| 42 | -2% | nt | CC(C)NCC(O)COc1ccc(CC(N)=O)cc1 (stereo not drawn) |
| -18 | -2% | 1 | Cc1n[nH]c(=O)nc1N1CCN(c2ccccc2)CC1 |
| -18 | -3% | 1 | c1ccc2c(c1)CCCN2Cc1nnc2n1CCCCC2 |
| 44 | 7% | 6 | CCC(=O)Nc1ccc2c(c1)C(=O)N(C1CCCCC1)C2=O |
| nt | 0%[11.4 µM] | nt | N#Cc1ccc(OC(=O)c2ccc(N=C(N)N)cc2)cc1 |
| ? | -3% | 0 | Cc1cc(=O)n2[nH]c(-c3ccccc3Cl)cc2n1 |
| 6 | 5% | -8 | O=C(NC1(C(F)(F)F)C(=O)Nc2c1c(=O)[nH]c(=O)n2-c1ccccc1)c1cccnc1 (stereo not drawn) |

Entries from the list above containing a CF3 group:
| PNC assembly inh | ALOX12 inhib | IMPase inh | compound |
| --- | --- | --- | --- |
| ? | -13% | -4 | O=C(CNc1ccc(C(F)(F)F)cc1[N+](=O)[O-])OCC(=O)c1ccccc1 |
| -13 | -5% | ? | COCCn1nnnc1CN1CCN(c2cccc(C(F)(F)F)c2)CC1 |
| -9 | -2% | 0 | N#Cc1ccc(C2=NC(C(F)(F)F)(C(F)(F)F)c3c(n(Cc4ccco4)c(=O)[nH]c3=O)N2)cc1 |
| 6 | 5% | -8 | O=C(NC1(C(F)(F)F)C(=O)Nc2c1c(=O)[nH]c(=O)n2-c1ccccc1)c1cccnc1 (stereo not drawn) |

Part of the list above, with each value named.
mol: O=C(O)c1cc(O)ccc1-c1ccc(O)cc1
- PNC assembly inh = 3
- ALOX12 inhib = 1%
- IMPase inh = 0

mol: O=C(NCc1ccc2c(c1)OCO2)c1cccc(N2CCCC2=O)c1
- PNC assembly inh = 38
- ALOX12 inhib = -5%
- IMPase inh = 1

mol: CN(CCC(=O)Nc1ccc(Br)cc1)Cc1ccccc1
- PNC assembly inh = 28
- ALOX12 inhib = 2%
- IMPase inh = -2

mol: CCOC(=O)N1CCC2(CC1)C(C#N)=C(N)Oc1c2c(C)nn1-c1cccc(Cl)c1
- PNC assembly inh = -22
- ALOX12 inhib = -18%
- IMPase inh = 7

Bioassay records: PubChem BioAssay, National Center for Advancing Translational Sciences (NCATS)
